# Screening data deposited in PubChem BioAssay by National Center for Advancing Translational Sciences (NCATS).
# Six1-Eya2 blk: qHTS Assay for Inhibitors of the Six1/Eya2 Interaction. AlphaScreen GST-Six1/His-Eya2 binding, biochemical; active compounds read low; control for the full effect not named in the record. Homeobox protein SIX1 (Homo sapiens) + Protein phosphatase EYA2 (Homo sapiens), …. activity change, % (test concentration not listed). 360,000 compounds, 0.56% hits; in the data active = activity change below about -65%; inconclusive = about -30% to -65%; inactive = above about -30%; also: % is scaled to controls: 0 for no effect and ±100 for the full control effect
#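 GST-Six1 + His-Eya2 (5X stock: 250/500 nM); Tris pH 8.0, 300 mM NaCl, 0.05% BSA, 0.02% Tween 20; GSH donor/Ni acceptor beads; 1 h 37 °C dark; AlphaScreen readout.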
# D2 PAM: Beta-Arrestin HTS for Positive Allosteric Modulators of the Human D2 Dopamine Receptor: Potentiators; potentiation, % (test concentration not listed); DiscoveRx D2 beta-arrestin cells, luminescence, 90 min; 100% = 57 uM dopamine signal; D(2) dopamine receptor (Homo sapiens), P14416; 360,000 compounds, 0.23% hits; active = potentiation of 50% or more; inconclusive = 30% to 50%; inactive = 30% or less;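 also: compound concentration not given in the record; tested on top of an EC20 dose of dopamine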
# Target sequence (P14416 whole entry, looked up): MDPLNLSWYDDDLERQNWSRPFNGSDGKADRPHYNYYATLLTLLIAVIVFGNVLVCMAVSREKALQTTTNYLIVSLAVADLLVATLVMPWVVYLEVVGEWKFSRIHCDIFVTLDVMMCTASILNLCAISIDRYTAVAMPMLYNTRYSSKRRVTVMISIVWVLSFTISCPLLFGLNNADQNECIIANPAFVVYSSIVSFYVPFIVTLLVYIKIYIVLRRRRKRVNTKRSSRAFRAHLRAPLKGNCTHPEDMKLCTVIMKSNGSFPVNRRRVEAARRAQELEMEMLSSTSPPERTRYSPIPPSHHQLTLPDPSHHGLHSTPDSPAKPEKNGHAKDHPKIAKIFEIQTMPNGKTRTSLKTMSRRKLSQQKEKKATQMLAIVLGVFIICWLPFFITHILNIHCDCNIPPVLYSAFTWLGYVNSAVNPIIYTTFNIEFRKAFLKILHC
#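 PathHunter beta-arrestin assay in DiscoveRx D2 cells. Compounds were added with an EC20 of dopamine (50 nM final) for 90 min at 37 deg C. Luminescence was read 1 h after detection reagent, with 57 uM dopamine as the EC100 control.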
# D2 agonist: Beta-Arrestin HTS for Positive Allosteric Modulators of the Human D2 Dopamine Receptor: Agonists; D(2) dopamine receptor (Homo sapiens), P14416; DiscoveRx PathHunter D2 beta-arrestin, luminescence, 90 min; 100% = 57 uM dopamine signal; activation, % (no concentration beside the values); 360,000 compounds, 0.084% hits; AID 624465, 2012; in the data active = activation above about 40%; inconclusive = about 15% to 40%; inactive = below about 15%; also: compound concentration not given in the record; the text of the record calls up to 30% inactive
#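 Agonist mode: compounds alone added to overnight-plated D2 PathHunter cells for 90 min at 37 C, with 57 uM final dopamine (EC100) defining full response. Beta-arrestin recruitment detected by chemiluminescent reagent, read after 1 h at ambient temperature.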
# PINK1 modulator: A Quantitative High throughput Screen to Identify Chemical Modulators of PINK1 Expression | 410,000 compounds, 0.2% hits | PINK1 immunofluorescence, high-content cytometry, 24 h | Potency, µM (titrated, usually from 76.6 µM), for the others: at the highest dose activation (PINK1 increase), hits mostly activators | AID 624263, 2012; active = well fitted activation curve with a large enough effect; inconclusive = small, poorly fitted or top-dose-only effect; inactive = flat fitted curve, though single readings scatter; cell line not stated here;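 also: potency is read from the fitted curve at half-maximal effect; % of control where 0% means no effect; nearly all actives have a fitted effect of over 65% in size; a mitochondrial uncoupler was the plate control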
#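 Readout is PINK1 immunofluorescence, quantified alongside mitochondrial, cell and nuclear markers by laser-scanning microplate cytometry. Cells from a stable line were exposed to compound titrations (5 concentrations) for 24 hours, with CCCP controls.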
# TRPML1 ag: qHTS for Agonists of the Human Mucolipin Transient Receptor Potential 1 (TRPML1). Mucolipin-1 (Homo sapiens), Q9GZU1. TRPML1-expressing cells, Ca2+ dye fluorescence, FDSS; host cell line not named in the record; reference of the full effect not given here. activation, % (concentration not given with the values). 410,000 compounds, 0.12% hits; in the data active = activation above about 50%; inconclusive = about 30% to 50%; inactive = below about 30%; also: 0% is about no effect; the text of the record puts the active cut at 80%
# Target sequence (Q9GZU1 whole entry, looked up): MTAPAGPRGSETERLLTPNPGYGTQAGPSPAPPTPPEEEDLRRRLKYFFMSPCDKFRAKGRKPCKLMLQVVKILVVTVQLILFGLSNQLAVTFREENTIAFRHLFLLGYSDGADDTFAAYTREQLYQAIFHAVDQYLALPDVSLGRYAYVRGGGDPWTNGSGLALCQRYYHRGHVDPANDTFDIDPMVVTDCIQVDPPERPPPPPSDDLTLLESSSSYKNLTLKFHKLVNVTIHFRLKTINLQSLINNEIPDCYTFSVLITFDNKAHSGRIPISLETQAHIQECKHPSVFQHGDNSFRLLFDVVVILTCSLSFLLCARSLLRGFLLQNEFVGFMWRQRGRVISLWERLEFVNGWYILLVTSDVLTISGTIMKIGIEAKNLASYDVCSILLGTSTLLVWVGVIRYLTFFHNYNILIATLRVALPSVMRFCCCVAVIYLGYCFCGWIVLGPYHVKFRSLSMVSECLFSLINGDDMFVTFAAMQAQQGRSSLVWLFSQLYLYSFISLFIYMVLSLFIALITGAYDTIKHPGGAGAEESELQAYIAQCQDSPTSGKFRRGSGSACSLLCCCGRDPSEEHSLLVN
#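 Agonist activity was taken from a 110 s kinetic Ca2+ dye read on the FDSS after pinning compounds onto TRPML1-DL cells. The cells were seeded at 1,500/well with Tet inducer, incubated about 16 h, then dye-loaded at room temperature.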
# CtBP-E1A inh: qHTS Assay for Inhibitors of the CtBP/E1A Interaction | activity change, % (concentration not given with the values) | AlphaScreen GST-E1A/His-CtBP binding, 1536-well; active compounds read low; control for the full effect not named in the record | 340,000 compounds, 0.49% hits | AID 651724, 2012; in the data active means activity change below about -65%; inconclusive means about -30% to -65%; inactive means above about -30%; also: % is scaled to controls: 0 for no effect and ±100 for the full control effect
#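 In 5 uL wells, 23 nL compound meets equimolar GST-E1A and His-CtBP (5X stock 125 nM each) for 2 h, 37 °C. Beads (5X, 50 ug/mL) then 1 h, 37 °C, dark.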
# * hit, by the source's call; ? = inconclusive; / = not tested or not shown; & = joins results of further samples; [ ] = dose if it differs, or a comment.
# Each structure is followed by: PINK1 modulator	Six1-Eya2 blk	D2 agonist	TRPML1 ag	D2 PAM	CtBP-E1A inh
> COc1ccc(C)cc1S(=O)(=O)N1CCCC(C(=O)NC2CC2)C1 (stereo not drawn)
 : 1.5%	0	-4.4	0.0	4	6
> O=C(CCn1cnc2ccccc21)N/N=C/c1ccc(O)cc1
 : -0.1%	-9	-2.5	-0.6	-4	-6
> COc1ccc2c(c1)CCc1c(C(=O)Nc3c(C)nn(Cc4ccccc4)c3C)noc1-2
 : -0.2%&2.5%	-2	2.6	3.0&4.3	5	-1
> CCOc1ccccc1C1CC(=O)Nc2cc(OC)c(OC)cc21 (stereo not drawn)
 : 3.6%	4	1.4	-0.3	-7	5
> Cc1nnc(SCCn2c(N3CC(C)CC(C)C3)nc3c2c(=O)n(C)c(=O)n3C)s1 (stereo not drawn)
 : 0.3%	6	-3.6	-0.3	-5	0
> C=CCn1c(SCC(=O)N2CCN(c3ccc(F)cc3)CC2)nnc1-c1ccco1
 : 1.8%	5	-1.6	0.8	-4	3
> Cc1ccc(COc2ccsc2C(=O)NNC(N)=S)cc1
 : 0.5%	-8	-0.3	0.0	-4	4
> Cc1c(N=Cc2ccc(O)c(Br)c2)cccc1[N+](=O)[O-]
 : 3.9%	5	-4.8	0.7	9	13
> O=C(c1ccc2c3c(cccc13)CC2)C1CCCN(Cc2ccccn2)C1 (stereo not drawn)
 : 0.6%	7	-1.6	-0.5	-7	-16
> O=C(CCN1C(=O)/C(=C/c2ccccc2)SC1=S)NC1CCS(=O)(=O)C1 (stereo not drawn)
 : 2.6%	-7	-1.9	-0.3	-4	-10
> CCCCOC(=O)n1c(=O)oc2cc(S(=O)(=O)N3CCCCC3)ccc21
 : ?	-1	-0.5	0.8	0	-6
> CCC1=NN2C(=N)/C(=C\c3ccc(OCc4cc(=O)n5nc(CC)sc5n4)c(OC)c3)C(=O)N=C2S1
 : 4.5%	-25	-1.8	0.3	-3	?
> CCOC(=O)[C@]12CCC=C1N(Cc1cccc3ccccc13)C(=O)[C@H](CC(=O)N1CCCCC1)C2
 : 0.3%	-13	/	-0.3	/	9
> COCCCNc1nc2nonc2nc1NCCSC
 : -1.0%	9	-7.3	/	-10	1
> CCOC(=O)[C@]12CCC=C1N(CCC1=CCCCC1)C(=O)[C@H](CC(=O)N1CCOCC1)C2
 : -0.5%	1	/	-0.6	/	3

# Following part
# Each structure is followed by: PINK1 modulator	Six1-Eya2 blk	D2 agonist	TRPML1 ag	D2 PAM	CtBP-E1A inh
> COC(=O)CCN(C(=O)c1ccc(N2CCCCC2)c([N+](=O)[O-])c1)c1ccccn1
 : 7.0%	5	6.7	-0.7	-3	-9
> CN(C)/N=C/c1ccc(Sc2ccccc2[N+](=O)[O-])o1
 : -1.8%	?	2.8	4.9	-2	?
> Cc1c(C(=O)NCc2cccs2)sc(=O)n1Cc1ccc(S(C)(=O)=O)cc1
 : 1.4%	8	-2.9	-0.2	-5	7
> Cc1ccc(S(=O)(=O)N(CC(=O)NCc2ccccc2Cl)C(=O)N2CCN(C)CC2)cc1
 : -0.5%	34	-4.0	0.3	-18	4
> Cc1cccc(-c2nnc(SCC(=O)N3CCOCC3)o2)c1
 : -0.9%	4	6.0	0.6	-1	-1
> COc1ccc(N(C(=O)c2ccc(Cl)cc2)C2=CC3CCC(C2)N3C)cc1 (stereo not drawn)
 : -2.0%	-18	-5.5	-0.2	-22	0
> CN(C)S(=O)(=O)c1cc(S(=O)(=O)N(C)C)c(Cl)cc1N
 : /	5	-2.2	-0.1	-7	-4
> Cn1nc(C(=O)NCc2ccccc2)c2c1-c1ccccc1S(=O)(=O)C2
 : 1.4%&0.5%	3	-3.9	-0.4&-0.4	-11	1
> OC(CNCC1CCCO1)Cn1c2ccc(Cl)cc2c2cc(Cl)ccc21 (stereo not drawn)
 : -3.2%	-2	2.9	0.5	-2	-5
> O=[n+]1cc(-c2cc3ccccc3o2)n([O-])c2c1CCCC2
 : -2.6%	-1	-2.8	-0.2	-10	0
> COc1ccc(CCNC2CC(=O)N(CCc3ccc(OC)c(OC)c3)C2=O)cc1 (stereo not drawn)
 : -0.8%	10	0.0	-0.7	3	-11
> Cc1cc(/C=N\O)c(C)n1-c1ccncc1
 : 0.3%	4	-3.3	-0.3	5	0
> O=[N+]([O-])C1C(c2ccccc2)C12c1ccccc1-c1ccccc12 (stereo not drawn)
 : 4.6%	-4	-1.0	15	-9	-9
> CSc1ccc(/C=N/N2CCN(Cc3ccccc3)CC2)cc1
 : -0.5%	?	0.1	2.6	-17	?
> O=C1C2C3C=CC(CC3)C2C(=O)N1c1ccccc1[N+](=O)[O-] (stereo not drawn)
 : -0.5%	23	-0.3	0.7	6	33

# Next entries:
# Each structure is followed by: PINK1 modulator	Six1-Eya2 blk	D2 agonist	TRPML1 ag	D2 PAM	CtBP-E1A inh
> NC(N)=N/N=C/c1ccc(OCc2ccc(Cl)cc2Cl)cc1
 : 5.3%[38.3 µM]	0	1.1	0.0	-3	-18
> O/N=C\c1ccc(-c2ccccc2)o1
 : 4.1%	-12	-3.5	0.1	-13	5
> CCOc1ccccc1NC(=O)CCc1nnc2ccc(NCc3ccco3)nn12
 : -0.4%	-10	-1.9	-1.6	2	-8
> O=c1ncn(C2CCCCC2)c(=O)[nH]1
 : 0.7%	5	0.4	-0.3	-3	-3
> NC(=O)C1CCN(c2oc(-c3ccc(F)cc3)nc2S(=O)(=O)c2ccccc2)CC1
 : 2.8%	-6	0.8	-0.8	-5	/
> Cc1c(C(=O)N2CCCC2)c(S(=O)(=O)Nc2ccccc2Cl)c(C)n1C
 : -0.1%	3	-3.7	-1.3	-9	3
> COc1cccc(NC(=O)NNS(=O)(=O)c2ccc(OC)cc2OC)c1
 : -0.8%	7	-3.5	0.4	-18	10
> Cn1c(SCC(=O)Nc2nccs2)nnc1C12CC3CC(CC(C3)C1)C2
 : -2.9%[38.3 µM]	0	1.1	0.4	-10	4
> COc1ccccc1/C=N/NC(=O)c1ccc(CN2C(=O)c3cccc4cccc2c34)cc1
 : -1.3%	-3	-4.1	2.2	-5	-3
> O=[N+]([O-])c1cccc(-c2nnc(SCc3cccnc3)o2)c1
 : -1.9%	0	8.5	0.5	-7	/
> CCc1cccc2c(C(=O)C(F)(F)F)cn(CC(=O)N3CCOCC3)c12
 : 0.4%	5	-2.4	0.2	-10	/
> CCOC(=O)Cc1csc(NC(=O)NC2(C(F)(F)F)Oc3ccc(Cl)cc3O2)n1 (stereo not drawn)
 : 3.0%	9	9.6	-0.9	16	2
> COc1ccc2cc3c(N)nn(C(=O)c4cccc(F)c4)c3nc2c1
 : -0.2%	3	-3.8	-0.3	-10	/
> NS(=O)(=O)c1ccc(NC(=O)COc2ccc(Cl)cc2)cc1
 : 1.0%	4	-0.8	1.1	-12	/
> Cc1cc[n+](CC[n+]2ccc(C)cc2)cc1
 : 1.0%	11	-2.3	0.1	-5	/

# (continued)
# Each structure is followed by: PINK1 modulator	Six1-Eya2 blk	D2 agonist	TRPML1 ag	D2 PAM	CtBP-E1A inh
> CN(C)CCN=Cc1c(O)n(Cc2ccccc2)c(=O)c2ccccc12
 : 0.0%	-5	-5.9	-0.8	-4	-10
> CCCCn1nnnc1NCc1cccc(OC)c1OC
 : 1.2%[38.3 µM]	2	-2.6	0.4	1	4
> Cc1cc(Cl)c2oc(C(=O)N3CCN(C4CCS(=O)(=O)C4)CC3)c(C)c2c1 (stereo not drawn)
 : 0.8%	0	4.1	0.5	-8	2
> COc1ccc(OC)c(NC(=O)Nc2cccnc2)c1
 : 1.0%	-3	-3.3	-0.3	-17	0
> CC(=O)OCC(=O)[C@@]1(O)CCC2C3CCC4=CC(=O)CCC4(C)C3C(=O)CC21C (stereo partly drawn)
 : -1.9%	4	-0.3	3.9	-3	7
> S=c1[nH]nc(C2CCCCC2)n1/N=C/c1ccccc1Br
 : 9.7%	3	1.7	2.2	0	-6
> COc1ccc(-n2nc([N+](=O)[O-])c(=NCCc3ccc(OC)c(OC)c3)n2O)cc1
 : 2.9%	-26	?	-0.6	137*	-8
> S=c1[nH]nc(CCc2ccc(Cl)cc2)o1
 : -1.9%	10	9.4	-0.6	-9	0
> CC(C)C[C@@H](CNCC(=O)[C@H](C)NC(=O)c1[nH]cnc1C(=O)N[C@@H](C)CN)NC(=O)c1nc[nH]c1C(=O)N[C@@H](CO)C(=O)O
 : 0.0%	-25	-0.6	-0.3	/	-18
> CCOC(=O)c1ccc2c(c1)[n+](CC)c(C)n2-c1ccccc1
 : -0.4%	1	-0.3	0.8	-12	3
> CC1Cc2ccccc2N1Cc1cc(=O)n2ccsc2n1 (stereo not drawn)
 : 0.1%	-15	-3.1	-1.3	1	-1
> Cc1ccccc1Nc1c(F)c(F)c(F)c(F)c1C(=O)O
 : 1.1%	-6	-2.0	-0.5	-3	1
> COc1ccc(Cl)cc1NC(=O)Nc1cnccn1
 : -0.1%	-4	-3.5	-0.4	-10	-4
> Cc1cc(C(=O)COC(=O)c2cccc(NS(C)(=O)=O)c2)c(C)n1CC1CCCO1 (stereo not drawn)
 : 0.9%	-11	-2.2	4.0	4	3
> O=C(CCn1c(=O)oc2ccc(Cl)cc21)NCCCN1CCOCC1
 : -0.2%	3	2.7	-0.9	-13	0

# Structures above that contain a CF3 group, in the order listed:
# Each structure is followed by: PINK1 modulator	Six1-Eya2 blk	D2 agonist	TRPML1 ag	D2 PAM	CtBP-E1A inh
> CCc1cccc2c(C(=O)C(F)(F)F)cn(CC(=O)N3CCOCC3)c12
 : 0.4%	5	-2.4	0.2	-10	/
> CCOC(=O)Cc1csc(NC(=O)NC2(C(F)(F)F)Oc3ccc(Cl)cc3O2)n1 (stereo not drawn)
 : 3.0%	9	9.6	-0.9	16	2

# Carrying on:
# Each structure is followed by: PINK1 modulator	Six1-Eya2 blk	D2 agonist	TRPML1 ag	D2 PAM	CtBP-E1A inh
> CC(C)[C@H](NC(=O)c1ccc(F)cc1)C(=O)N(C)Cc1cccs1
 : -0.7%	3	-0.8	0.2	-2	0
> CN1CCN(C(=O)/C=C/c2ccc(C#N)cc2)CC1
 : 0.9%	0	-2.1	-1.0	-7	12
> C[C@H](CO)N1C[C@H](C)[C@@H](CN(C)S(=O)(=O)c2ccc(F)cc2)Oc2c(NC(=O)Cc3ccccc3)cccc2C1=O
 : 0.2%	0	-0.2	3.2	-6	-3
> COc1ccc2oc(=O)c(C(=O)N3CCN(C(=O)c4ccco4)CC3)cc2c1
 : 3.5%	0	-1.3	-1.7	-3	-7
> O=C(NCc1cccc(C(F)(F)F)c1)c1ccc[nH]1
 : -3.1%	-2	4.8	1.3	-1	5
> Cc1cc(CN(C)C(=O)CC2C(=O)NCCN2CC(c2ccccc2)c2ccccc2)on1 (stereo not drawn)
 : 0.2%	0	-1.4	-0.4	-4	6
> Cc1ccc(NC(=S)N(CCCN2CCCC2)Cc2cccn2Cc2ccc(Cl)cc2)cc1C
 : -0.9%	-23	-1.5	0.4	-7	-7
